Measles inh: inhibitors of measles virus growth in infected cells; infected Vero cells, GFP fluorescence, 64 h; active compounds read low; z-score (concentration not given with the values); 33,000 tested, 0.1% active; AID 745;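 active = z-score under -3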;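 also: score is relative to mean and SD of the compound wells of a plate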
The depositor's hits bear a star.

SMILES | Measles inh
CC(C)(C(=O)c1cccnc1)c1cccnc1 | 0.23
O=C1c2ccccc2C(=O)c2c(O)c(O)cc(O)c21 | -1.37

Bioassay records: PubChem, Emory University Molecular Libraries Screening Center

Some of the compounds tested; count on the stated rates, not on these rows.
